# AF4-AF9 inh – MLL-AF4/AF9 protein interaction inhibition; P42568; AlphaScreen, biotin-AF4 peptide binding to FLAG-AF9; inhibition, % at 10 µM; actives 0.47% (n = 350,000); AID 651704;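 active = every replicate reaching a set inhibition limit, whatever the replicate mean, cut at about 25% in these data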;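 note: 0% = plate neutral control median and 100% = total signal loss; the record names both 10 and 1 µM as test concentration; the first replicate is given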
# HNF4A DNA FP – change in binding of human HNF4 alpha to DNA. P41235. HNF4a-FITC DNA binding, fluorescence polarization, 1 h. activity change, % at 10 µM. actives 0.3% (n = 360,000). AID 1224865; in the data active = activity change above about 30%, passing the limit was not always enough;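 note: controls were the assay level and a saturating level of protein; the project sought stronger binding though the title names inhibitors; some compounds called inactive have numbers as strong as hits; positive values seem to mean higher polarization but the record does not say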
# Target sequence (P41235 whole entry, looked up): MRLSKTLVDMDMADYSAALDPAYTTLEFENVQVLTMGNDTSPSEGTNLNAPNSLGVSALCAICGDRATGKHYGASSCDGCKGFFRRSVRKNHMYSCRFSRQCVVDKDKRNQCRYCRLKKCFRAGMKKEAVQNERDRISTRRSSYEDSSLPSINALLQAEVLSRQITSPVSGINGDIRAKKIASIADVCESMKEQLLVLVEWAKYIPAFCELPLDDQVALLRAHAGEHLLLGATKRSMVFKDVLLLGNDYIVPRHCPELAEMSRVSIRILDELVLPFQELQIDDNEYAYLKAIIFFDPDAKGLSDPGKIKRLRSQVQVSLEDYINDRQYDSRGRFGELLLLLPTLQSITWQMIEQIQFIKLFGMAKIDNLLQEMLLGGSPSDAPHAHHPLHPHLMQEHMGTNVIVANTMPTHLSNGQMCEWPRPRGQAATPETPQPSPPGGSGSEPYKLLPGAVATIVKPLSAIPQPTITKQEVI
# ALR inh – human ALR oxidase inhibition via reduced H2O2. P55789. purified ALR, DTT oxidation, H2O2 HRP-luminol luminescence. inhibition, % (concentration not given with the values). actives 3.8% (n = 290,000). AID 485317;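 active = mean and each replicate at 75% or more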;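 note: stock transfer was 7.5 nL into about 7.5 µL; 0% = neutral wells and 100% = wells with inactivated enzyme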
# Target sequence (P55789 whole entry, looked up): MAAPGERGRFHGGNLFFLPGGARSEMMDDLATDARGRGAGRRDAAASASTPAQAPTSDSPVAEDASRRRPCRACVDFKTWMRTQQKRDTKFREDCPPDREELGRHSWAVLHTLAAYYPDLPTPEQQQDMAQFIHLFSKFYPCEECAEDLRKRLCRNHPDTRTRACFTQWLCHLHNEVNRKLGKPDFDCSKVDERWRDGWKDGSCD
# E coli growth – blocks Escherichia coli growth. OD600, 23 h; active compounds read low. OD600 absorbance (test concentration not listed). actives 0.21% (n = 330,000);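 active = OD600 absorbance below the run mean of sample wells minus 3.6 SD, in any replicate, cut at about 0.56 in these data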;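 note: stock transfer was 300 nL into about 60 µL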
# Vif A3G – HIV-1 Vif–A3G interaction blockers – biochemical, TR-FRET, GST-Vif 1-94, biotin-A3G peptide, dose response retest, primary screen (AID 1117319). actives 0.57% (n = 260,000). TR-FRET GST-Vif / biotin-A3G peptide binding; higher % means a stronger effect; test concentration not given here; strong numbers were not always called active. inhibition, %, or IC50 in µM where a hit was titrated;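 active = above the screen mean plus three standard deviations and confirmed in dose response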;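 note: Vif residues 1-94 fused to GST binding biotinylated APOBEC3G peptide 110-148; 0% = full assay without inhibitor and 100% = GST in place of GST-Vif; retest series ran down from 100 µM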
# rRNA inh HTS – selective bacterial rRNA inhibition in E. coli; E. coli WT GFP vs humanized-ribosome RFP mutants, fluorescence, 24 h; active compounds read low; DMSO median 0, no signal -100; GFP signal change (wild-type ribosome), % (concentration not given with the values); actives 1.6% (n = 350,000); AID 720706;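 active = significant combined selectivity score with lowered wild-type GFP, culture density cut under 30%, mutant RFP and density less affected; inactive = any of these conditions unmet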; note: one replicate is shown; some compounds called inactive have numbers as strong as hits
# FGF22 binding – shifts melting point of recombinant human FGF22; recombinant FGF22 thermal shift, SYPRO orange fluorescence; percent of sucrose octasulfate shift, DMSO zero; calls only at 9.99 µM; actives 1.5% (n = 340,000); AID 651658;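 active = melting point raised past a set limit in the mean and every replicate; three in four hits are not shown here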
# Target sequence (Q9HCT0 whole entry, looked up): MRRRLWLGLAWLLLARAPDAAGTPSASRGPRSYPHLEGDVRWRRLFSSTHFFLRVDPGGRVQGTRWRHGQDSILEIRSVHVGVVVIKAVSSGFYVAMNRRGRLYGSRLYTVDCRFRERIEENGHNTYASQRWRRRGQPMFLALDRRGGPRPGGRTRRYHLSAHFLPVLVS
# rRNA inh HTS OD600 – also measured in rRNA inh HTS; calls as there; OD600 change, %; measured here: OD600 growth;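 optical density of the mix in the first replicate; 0 = DMSO median and -100 = no signal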
# rRNA inh HTS RFP – recorded beside rRNA inh HTS, whose call it bears; RFP signal change, %; measured here: RFP humanized mutant strains;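 first replicate; 0 = DMSO median and -100 = no signal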
# An asterisk follows results filed as active; i = inactive; · = no result given. The list is partial; rates above refer to the full screens.
# Values run as follows: rRNA inh HTS	rRNA inh HTS OD600	FGF22 binding	AF4-AF9 inh	Vif A3G	ALR inh	E coli growth	rRNA inh HTS RFP	HNF4A DNA FP
COc1ccc(OC)c(NC(=O)c2cc3c(cc2Cl)N2CCCCCC2=NS3(=O)=O)c1
  -7	-3	i	-0.6	-18%	-6	0.68	2.7	0.9
CO[C@H]1CN(C)C(=O)c2ccc(NS(=O)(=O)c3c(C)noc3C)cc2OC[C@@H](C)NC[C@@H]1C
  0	3	i	-3.3	·	·	·	0.4	·
C[C@@H]1CN([C@@H](C)CO)C(=O)c2cc(NS(=O)(=O)c3ccccc3)ccc2O[C@H]1CN(C)S(C)(=O)=O
  5	21	i	-0.5	·	·	·	0.2	·
S=C(NCCSCc1c(Cl)cccc1Cl)Nc1ccccc1
  ·	·	·	·	0%	-9	0.72	·	2.7
O=C(O)COc1cccc(NC(=O)C2CCCO2)c1 (centres undefined)
  16	18	·	·	-3%	-1	0.69	3.0	-1.3
COCC(=O)N1C[C@H](C)[C@H](OC)CN(C)C(=O)c2cc(NS(C)(=O)=O)ccc2OC[C@@H]1C
  1	3	i	-1.9	·	·	·	-2.0	·
COc1ccc(NC(=O)CN2C(=O)COc3ccc(C)cc32)c(OC)c1
  4	10	i	-4.0	·	-9	0.66	1.0	-1.1
CC(C)C#Cc1ccc2c(c1)O[C@@H](CN(C)C(=O)C1CC1)[C@@H](C)CN([C@@H](C)CO)S2(=O)=O
  4	3	i	2.8	·	·	·	-1.5	·
CCCCNC(=O)C1C(c2ccccc2)=Nc2ccccc2N1C(=O)c1ccc(C(F)(F)F)cc1 (centres undefined)
  -4	7	i	7.7	·	·	·	0.9	0.1
Cn1c(N)c(C(=O)COC(=O)c2cc(-c3ccco3)nc3ccccc23)c(=O)n(C)c1=O
  8	16	i	·	29%	·	0.64	15	-20
COc1ccc2c3c([nH]c2c1)[C@H](CO)N(C(C)=O)CC31CCN(S(=O)(=O)c2cccs2)CC1
  -5	-15	i	-1.2	·	·	·	2.8	·
CCCCCCOC(=O)CC1CC(C(C)=O)C1(C)C (centres undefined)
  ·	·	i	-1.8	-5%	·	0.65	·	6.1
CCOC(=O)C1(Cc2ccc(OC)cc2)CCN(C(=O)c2sc(C)nc2C)CC1
  -1	-8	i	1.1	·	-27	0.69	-3.7	1.0
COC(=O)Cc1c[nH]c2cccc(OCC(O)CN(Cc3ccc([N+](=O)[O-])cc3)C(C)(C)C)c12 (centres undefined)
  -39	-45	·	·	0%	-5	0.66	-7.2	1.6
COc1ccc(S(=O)(=O)Nc2ccc3c(c2)CC(=O)N([C@H](C)CO)C[C@H](C)[C@H](CN(C)Cc2ccncc2)O3)cc1
  -2	-6	i	-0.8	·	·	·	-3.7	·
OC(C#CCN1CCOCC1)(c1ccccc1)C1CC1 (centres undefined)
  ·	·	·	·	-2%	·	0.7	·	1.4
O=C(N/N=C/c1ccc(N2CCOCC2)cc1)C1CC1
  21	15	i	-7.5	1%	4	·	7.5	3.6
CCN(Cc1ccncc1)C(=O)CC1C(=O)NCCN1Cc1ccc(F)c(F)c1 (centres undefined)
  13	9	i	0.9	·	-23	0.67	1.1	1.1
c1ccc2c(-c3nnc4n3CCCCC4)c[nH]c2c1
  ·	·	·	·	7%	1	0.69	·	3.0
COc1ccc(CN(C)C[C@H]2Oc3c(NC(=O)Nc4ccc5c(c4)OCO5)cccc3C(=O)N([C@H](C)CO)C[C@@H]2C)cc1
  -5	-9	i	-7.8	·	·	·	1.1	·
COc1ccc(Cl)cc1NC(=S)N(Cc1ccccc1C)CC1CCC(C(=O)O)CC1 (centres undefined)
  -10	-14	·	-1.6	7%	-15	0.62	-7.8	-2.6
S=C(Nc1ccccc1)Nc1ccc(OCc2ccccc2)cc1
  ·	·	·	·	9%	-7	0.73	·	3.2
Cc1nc(N2CCN(Cc3ccc4c(c3)OCO4)CC2)[nH]c(=O)c1C
  11	5	i	0.5	-4%	·	0.67	-1.4	-3.3
COc1ccc(S(=O)(=O)N(C)C[C@H]2OCCCC[C@H](C)Oc3ccc(N(C)C)cc3C(=O)N([C@H](C)CO)C[C@H]2C)cc1
  -3	-1	i	7.0	·	·	·	-0.2	·
COc1ccc(CCNCC(=O)Nc2ccc(C(=O)N3CCCCC3)cc2)cc1
  -1	-1	i	2.4	-4%	0	0.68	1.0	2.5
Cc1cccnc1C(NC(=O)C1CCN(Cc2ccc(Cl)cc2)CC1)c1ccc(F)cc1 (centres undefined)
  -47	-74	i	6.8	·	·	·	-11	0.3
O=C(COC(=O)C1CCN(S(=O)(=O)c2cccs2)CC1)NCc1ccc(F)cc1
  -4	-4	i	0.1	-15%	·	0.75	-0.4	0.9
CCCN1[C@@H]2c3ccc(-c4ccncc4)c(=O)n3C[C@H]1[C@H](CO)[C@H]2C(=O)NCC1CC1
  3	5	i	2.1	·	·	·	-4.9	·
C/C=C/c1ccc([C@@H]2[C@@H](CO)N3C(=O)CN(C(=O)Nc4ccc(F)cc4)C[C@H]23)cc1
  -1	16	i	1.6	·	·	·	-3.1	·
CCOC(=O)C1=C(C)Nc2ccccc2N=C1NC(=O)c1cccc(S(=O)(=O)N(C)C)c1
  -5	-10	·	·	12%	0	0.73	-3.1	1.7
Cc1ccc(C(=O)COC(=O)CCN2C(=O)C3C4CCC(C4)C3C2=O)cc1[N+](=O)[O-] (centres undefined)
  12	6	i	-0.3	·	-7	0.7	0.4	2.5
COc1ccc(CN(C)C[C@H]2OCCCC[C@H](C)Oc3ccc(NC(=O)Nc4c(C)noc4C)cc3C(=O)N([C@H](C)CO)C[C@@H]2C)cc1
  2	2	i	-1.0	·	·	·	0.9	·
Cc1cccc(C=CC(=O)c2ccccc2)c1
  -11	-1	i	-0.6	-1%	·	0.65	2.1	2.2
CCCCSc1nc(C)c(CC(=O)O)c(=O)[nH]1
  ·	·	·	·	15%	1	0.76	·	5.2
O=C(C[C@H]1C[C@H]2c3cc(NC(=O)C4CCC4)ccc3O[C@H]2[C@H](CO)O1)NCc1ccc(-c2ccccc2)cc1
  -5	0	i	-1.7	·	·	·	9.0	·
C[C@@H]1CN([C@@H](C)CO)C(=O)Cc2cc(NC(=O)c3ccncc3)ccc2O[C@H]1CN(C)Cc1ccc(Cl)c(Cl)c1
  -7	-19	i	13	·	·	·	11	·
Cc1cccc(C(C)C)c1NC(=O)CN1C(=O)NC2(CCc3ccccc32)C1=O (centres undefined)
  -1	0	i	-2.0	-1%	-17	0.65	-0.1	2.0
C[C@H]1CN([C@@H](C)CO)C(=O)c2cccc(NS(C)(=O)=O)c2O[C@@H]1CN(C)C
  1	2	i	-3.4	·	·	·	-1.9	·
CN(CCOCCOc1ccc(F)cc1)Cc1ccccc1
  13	0	i	-0.8	·	-7	0.57	4.1	1.2
COCc1ccc(CN2CCCC(CO)(Cc3ccccc3)C2)o1 (centres undefined)
  11	10	i	-0.2	13%	-2	0.65	1.0	-2.9
O=c1[nH]c(CO)nc2c1oc1ccccc12
  ·	·	·	·	6%	-1	0.7	·	-3.0
COc1cccc(C#Cc2cnc3c(c2)C(=O)N([C@@H](C)CO)C[C@H](C)[C@H](CN(C)CC2CC2)O3)c1
  2	-1	i	9.9	·	·	·	1.6	·
CCC(=O)N[C@H]1CC[C@H](CC(=O)NCc2cc(F)cc(F)c2)O[C@H]1CO
  6	0	i	-1.8	·	·	·	-0.5	·
COC(=O)c1cnn2c(C(F)(F)F)cc(-c3ccco3)nc12
  0	9	·	·	7.2µM*	0	0.74	3.1	1.3
COc1ccc2c3c([nH]c2c1)[C@H](CO)N(C(=O)C1CCC1)CC31CN(Cc2cccc(F)c2)C1
  -52	-74	i	17	·	·	·	-7.5	·

# Five entries out of the list, ordered by number of heavy atoms, lowest first.
# Values run as follows: rRNA inh HTS	rRNA inh HTS OD600	FGF22 binding	AF4-AF9 inh	Vif A3G	ALR inh	E coli growth	rRNA inh HTS RFP	HNF4A DNA FP
C[C@H]1CN([C@@H](C)CO)C(=O)c2cccc(NS(C)(=O)=O)c2O[C@@H]1CN(C)C
  1	2	i	-3.4	·	·	·	-1.9	·
Cc1ccc(C(=O)COC(=O)CCN2C(=O)C3C4CCC(C4)C3C2=O)cc1[N+](=O)[O-] (centres undefined)
  12	6	i	-0.3	·	-7	0.7	0.4	2.5
COc1ccc2c3c([nH]c2c1)[C@H](CO)N(C(=O)C1CCC1)CC31CN(Cc2cccc(F)c2)C1
  -52	-74	i	17	·	·	·	-7.5	·
C[C@@H]1CN([C@@H](C)CO)C(=O)Cc2cc(NC(=O)c3ccncc3)ccc2O[C@H]1CN(C)Cc1ccc(Cl)c(Cl)c1
  -7	-19	i	13	·	·	·	11	·
COc1ccc(CN(C)C[C@H]2OCCCC[C@H](C)Oc3ccc(NC(=O)Nc4c(C)noc4C)cc3C(=O)N([C@H](C)CO)C[C@@H]2C)cc1
  2	2	i	-1.0	·	·	·	0.9	·

# Additional results follow:
# Values run as follows: rRNA inh HTS	rRNA inh HTS OD600	FGF22 binding	AF4-AF9 inh	Vif A3G	ALR inh	E coli growth	rRNA inh HTS RFP	HNF4A DNA FP
Cn1c(=O)c2c(nc(Br)n2Cc2ccc3ccccc3c2)n(C)c1=O
  ·	·	·	·	-1%	-1	0.69	·	-3.2
O=C(O)c1cccc2cc(-c3ccccc3)oc(=O)c12
  7	7	i	-2.9	3%	-28	0.66	1.1	2.7
CN(C(=O)CSc1nc2ccc(Br)cc2c(=O)n1Cc1ccco1)C1CCS(=O)(=O)C1 (centres undefined)
  10	1	i	-1.9	-3%	3	0.7	-2.2	2.4
COc1ccc(CCC(=O)Nc2ncc(C)s2)cc1
  10	14	i	0.4	·	-9	0.68	9.2	3.2
CCOCCCNC(=O)Cc1ccc(OC)c(OC)c1
  ·	·	·	·	7%	12	0.74	·	-1.0
FC(F)Sc1ccc(NC(=S)NC2CCC(NC(=S)Nc3ccc(SC(F)F)cc3)CC2)cc1 (centres undefined)
  ·	·	·	·	1%	-10	0.74	·	22
Cc1ccc(NC(=O)CN2C(=O)c3ccccc3S2(=O)=O)cc1C
  -1	3	i	-2.7	·	-6	0.72	7.4	3.4
CCC(C(=O)OCC(=O)Nc1c(C)n(C)n(-c2ccccc2)c1=O)c1ccccc1 (centres undefined)
  ·	·	·	·	0%	0	0.71	·	1.2
CCCc1ccc2oc(C(=O)N(C)CCn3ccnc3C)c(C)c2c1
  -5	-16	i	6.5	·	-4	0.65	2.3	-0.7
O=C(N/N=C/c1ccc(-c2cccc([N+](=O)[O-])c2)o1)[C@H]1C[C@@H]1c1ccccc1
  ·	·	·	·	8%	-21	·	·	-0.2
CC1CCCC(C)N1C(=O)COC(=O)CNC(=O)C12CC3CC(CC(C3)C1)C2 (centres undefined)
  2	1	i	1.5	2%	2	0.7	-0.8	-4.4
CCc1ccc(C(=O)NC(=S)Nc2ccccc2N2CCOCC2)cc1
  ·	·	·	·	0%	-2	0.74	·	-0.1
Cn1cc(Br)c(C(=O)N2CCN(c3cccc(Cl)c3)CC2)n1
  ·	·	·	·	·	31	0.69	·	-2.9
CCOC(=O)C1=CCC(c2ccc(N(CC)CC)cc2)N(S(=O)(=O)c2ccc(C)cc2)C1c1ccc([N+](=O)[O-])cc1 (centres undefined)
  3	-14	i	·	·	·	·	-3.2	6.5
COC(=O)c1ccccc1NC(=O)c1ccc(Cn2cc(Cl)cn2)o1
  ·	·	·	·	3%	-12	0.7	·	-3.5
Nc1cc(=O)[nH]c(SCC(=O)Nc2cccc(Cl)c2Cl)n1
  8	0	i	-2.4	·	55	0.7	-5.2	0.2
CC(C)(C)C1CCC(OC(=O)C[N+]2(C)CCCC2)CC1 (centres undefined)
  7	6	i	-4.9	9%	0	0.65	3.6	-2.4
